VDR inh = vitamin D3 receptor (human) inhibition; P11473; VDR-SRC2-3 peptide fluorescence polarization, 2 h; Potency, µM, inactives show max response, negative = inhibition, actives largely listed as inhibitors; actives 0.93% (n = 400,000); AID 504847; active means well fitted inhibition curve with a large enough effect; inconclusive means small, poorly fitted or top-dose-only effect, or another doubt; inactive means no such curve, though single readings can be large or run the other way; further: series mostly up to about 120 µM
Target sequence (P11473 whole entry, looked up): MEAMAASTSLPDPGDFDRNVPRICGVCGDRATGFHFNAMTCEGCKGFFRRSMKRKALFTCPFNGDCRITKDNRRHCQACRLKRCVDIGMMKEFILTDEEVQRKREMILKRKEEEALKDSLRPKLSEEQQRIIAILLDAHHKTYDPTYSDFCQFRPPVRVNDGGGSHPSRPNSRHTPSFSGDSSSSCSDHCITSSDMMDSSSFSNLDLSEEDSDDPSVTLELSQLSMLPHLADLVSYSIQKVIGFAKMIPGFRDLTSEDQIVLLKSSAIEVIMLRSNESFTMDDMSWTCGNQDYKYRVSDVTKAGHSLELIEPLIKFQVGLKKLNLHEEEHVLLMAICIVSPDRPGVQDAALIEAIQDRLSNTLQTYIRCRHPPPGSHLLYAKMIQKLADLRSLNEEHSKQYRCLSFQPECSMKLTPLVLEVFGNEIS
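Inhibition of the VDR/SRC2-3 peptide interaction is quantified by fluorescence polarization. Compounds (23 nl, pintool) incubate with the reagents for 2 hours at ambient room temperature.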
* marks the source's active call; other numbers are inactive results; & = joins results of further samples; [ ] = remark or other dose. On the % scale 0 is the no-effect control and ±100 the full control effect; potency means the concentration at half of the fitted maximal effect. An excerpt; rates above refer to the full screens.

Start of the data: the first 2 entries, to show the layout:
What do the screens show for `Cc1cc(C(=O)CSc2nnc3ccccn23)c(C)n1-c1ccccc1`?
VDR inh: -7%

How did Cc1occc1C(=O)NC(C)c1ccc2c(c1)OCO2 (centres undefined) do in these assays?
VDR inh: -11%

The whole of this part, repeating the preview:
What do the screens show for `Cc1cc(C(=O)CSc2nnc3ccccn23)c(C)n1-c1ccccc1`?
VDR inh: -7%

How did Cc1occc1C(=O)NC(C)c1ccc2c(c1)OCO2 (centres undefined) do in these assays?
VDR inh: -11%

What do the screens show for `NC1(C(=O)O)CCc2cc(C(=O)O)ccc21` (centres undefined)?
VDR inh: -6%

What do the screens show for `Cc1nn(CC(=O)NCc2ccccc2F)c(C)c1[N+](=O)[O-]`?
VDR inh: 3%

How did COc1ccccc1NS(=O)(=O)c1cccc(C(=O)NN)c1 do in these assays?
VDR inh: 12%

What do the screens show for `CCC(C)NC(=O)c1cc(-c2ccc(OC)cc2)on1` (centres undefined)?
VDR inh: -8%

What do the screens show for `COc1ccc(-c2cc(C(=O)Nc3sc4c(c3C#N)CCCC4)c3ccccc3n2)cc1OC`?
VDR inh: 15%

What do the screens show for `CCOC(=O)C1=C(NC(=S)NC(=O)c2ccccc2)c2ccccc2CC1C(C)C` (centres undefined)?
VDR inh: 7%

What do the screens show for `COc1ccccc1CNc1ccnc(-c2ccccc2OC)n1`?
VDR inh: inconclusive

Results for CCOC(=O)c1sc(NC(=O)/C=C/c2c(F)cccc2Cl)nc1C ?
VDR inh: 5%

Among those listed so far, five have sulfur.
What do the screens show for `Cc1cc(C(=O)CSc2nnc3ccccn23)c(C)n1-c1ccccc1`?
VDR inh: -7%

How did COc1ccccc1NS(=O)(=O)c1cccc(C(=O)NN)c1 do in these assays?
VDR inh: 12%

What do the screens show for `COc1ccc(-c2cc(C(=O)Nc3sc4c(c3C#N)CCCC4)c3ccccc3n2)cc1OC`?
VDR inh: 15%

What do the screens show for `CCOC(=O)C1=C(NC(=S)NC(=O)c2ccccc2)c2ccccc2CC1C(C)C` (centres undefined)?
VDR inh: 7%

Results for CCOC(=O)c1sc(NC(=O)/C=C/c2c(F)cccc2Cl)nc1C ?
VDR inh: 5%

Among those listed so far, these have a halogen.
What do the screens show for `Cc1nn(CC(=O)NCc2ccccc2F)c(C)c1[N+](=O)[O-]`?
VDR inh: 3%

Results for CCOC(=O)c1sc(NC(=O)/C=C/c2c(F)cccc2Cl)nc1C ?
VDR inh: 5%

The list continues.
How did O=C(CCn1c(=O)[nH]c2ccsc2c1=O)N1CCN(c2ccc([N+](=O)[O-])cc2)CC1 do in these assays?
VDR inh: 7%

What do the screens show for `Cc1ccc(CNC(=O)Cn2cccc2C(=O)c2ccccc2)cc1`?
VDR inh: -8%

How did Cn1cc(-c2nnc(-c3ccccc3)o2)c2ccccc21 do in these assays?
VDR inh: 15%

How did COC(=O)C1=C(CCc2ccccc2)NC(=O)NC1c1ccc(Br)cc1 (centres undefined) do in these assays?
VDR inh: -3%

What do the screens show for `COc1cccc(C(=O)NNc2c3ccccc3nc3ccccc23)c1`?
VDR inh: -12%

Results for CCN(CC(=O)Nc1c(F)cccc1F)C(=O)Cc1ccsc1 ?
VDR inh: -1%

Results for CCOc1cc(CNc2ccccc2)cc(Br)c1OCc1ccccc1F ?
VDR inh: 3%

What do the screens show for `Cc1nc2cnc(N(C)C)nc2n(CCc2ccccc2)c1=O`?
VDR inh: -10%

How did CC(Oc1cccnc1[N+](=O)[O-])C(=O)Nc1ccc(Cl)cn1 (centres undefined) do in these assays?
VDR inh: -2%

Results for CCOC(=O)C1C(=O)CC(C)(O)C(C(=O)OCC)C1c1cccc(OC)c1 (centres undefined) ?
VDR inh: 10%

How did Cc1cc(C)c(C)c(S(=O)(=O)Nc2ccccc2C(=O)NCCCN2CCOCC2)c1C do in these assays?
VDR inh: 2%

What do the screens show for `COc1ccccc1-n1cnnc1SCC(=O)Nc1ncc(Cl)cc1Cl`?
VDR inh: -18%

What do the screens show for `O=C(O)C(c1ccccc1)C1(O)CC2CCC1C2` (centres undefined)?
VDR inh: -17%

What do the screens show for `Cc1cc(C)n(-c2nc3c(c(=O)[nH]c(=O)n3C)n2C)n1`?
VDR inh: -2%

How did O=c1cc(SCc2ccccc2)nc[nH]1 do in these assays?
VDR inh: -13%

How did CCC1CCCCN1C(=O)CSc1nnc(-c2ccc(Cl)cc2)o1 (centres undefined) do in these assays?
VDR inh: -15%

Results for Cc1cccc(C(=O)OCC(=O)NC23CC4CC(CC(C4)C2)C3)c1O ?
VDR inh: -16%

How did CC1CCN(C(=O)c2ccc(N3C(=O)c4ccccc4C3=O)cc2)CC1 do in these assays?
VDR inh: -14%

Results for O=C(c1ccccc1Cl)N1CCCC(c2nc3c(nnn3Cc3ccc(F)cc3F)c(=O)[nH]2)C1 (centres undefined) ?
VDR inh: -2%

Results for CCOc1ncccc1C(=O)NCCc1ccc(OC)cc1 ?
VDR inh: 9%

What do the screens show for `Cc1ccc(OCCSc2nc(-c3ccccc3C)nc3cc(=O)[nH]n23)cc1Cl`?
VDR inh: 9%

How did COc1ccc(-n2c(SCC(=O)Nc3cccc(C(=O)O)c3)nnc2-c2ccco2)cc1 do in these assays?
VDR inh: -3%

Results for C/C(=N\NC(=O)c1ccn(C)n1)c1ccc(NC(=O)c2cccc(F)c2)cc1 ?
VDR inh: 35%[activator]

How did COC(=O)c1ccccc1NC(=O)CCS(=O)(=O)c1ccc(Br)cc1 do in these assays?
VDR inh: inconclusive

How did CCOC(=O)c1cc2sccc2n1Cc1ccc(C#N)cc1 do in these assays?
VDR inh: 7%

How did Nc1cc(-c2ccc(Cl)cc2)nn1-c1ccccc1 do in these assays?
VDR inh: 7%

How did COc1ccc(N=c2oc3ccc(OC)cc3cc2-c2nc3ccccc3[nH]2)cc1 do in these assays?
VDR inh: 0%

What do the screens show for `O=S(=O)(Nc1cccc(-n2cnnn2)c1)c1cnc(Cl)c(Cl)c1`?
VDR inh: -5%

What do the screens show for `Cc1ccc(OCc2nnc(N)s2)cc1`?
VDR inh: -2%

How did COc1ccccc1C(=O)Nc1ccc(-c2nc3cc(C)cc(C)c3o2)cc1 do in these assays?
VDR inh: 89µM*

Results for Cc1cc(C)nc(NC(=O)c2c(-c3c(Cl)cccc3Cl)noc2C)n1 ?
VDR inh: 8%

What do the screens show for `N#CNC(=Nc1ccccc1F)SCc1ccc(C(=O)O)cc1`?
VDR inh: -2%

Results for O=[N+]([O-])c1ccccc1-c1ccc(C(=S)N2CCCC2)o1 ?
VDR inh: 40µM*

How did CSc1nc(Cl)cc(Nc2ccccc2N)n1 do in these assays?
VDR inh: 5%

What do the screens show for `Cc1cc(Br)cc2c1N(Cc1ccccc1OC(C)C)C(=O)C2=O`?
VDR inh: 13µM*

Results for O=S(=O)(Cc1ccc(Cl)cc1)N1CCCC1 ?
VDR inh: 10%

What do the screens show for `COc1cc2cc(C(N)=O)c(N)nc2cc1OC`?
VDR inh: -17%

What do the screens show for `O=C(c1cccc(Cl)c1)N(Cc1ccco1)Cc1ccccc1Cl`?
VDR inh: 18%

What do the screens show for `Cn1c(SCC(=O)Nc2ccc(N3CCOCC3)cc2)nnc1-c1ccccc1F`?
VDR inh: -2%

How did O=C(NC1CC1)c1cccc(Br)c1 do in these assays?
VDR inh: -20%

How did CC(=O)c1cccc(NC(=O)c2cc(C(C)C)on2)c1 do in these assays?
VDR inh: -22%

What do the screens show for `CCOC(=O)/C=C/C(=O)OCC(=O)N1CCN(C(=O)c2ccco2)CC1`?
VDR inh: -19%

Results for O=S(=O)(Nc1ncccn1)c1ccc(NC(=S)NCCc2ccc(Cl)cc2)cc1 ?
VDR inh: 2%

What do the screens show for `COc1cccc(NC(=O)Nc2nc(-c3ccc(OC)c(OC)c3)cs2)c1`?
VDR inh: -6%

How did CCOc1ccccc1Oc1c(C)oc2c(CN3CCN(C)CC3)c(O)ccc2c1=O do in these assays?
VDR inh: 2%

How did CCOc1cc(C(=S)N2CCOCC2)ccc1OC(=O)c1cccc(C)c1 do in these assays?
VDR inh: -5%

What do the screens show for `COc1ccc(C(=O)Nc2ccccc2C(=O)N(Cc2ccco2)C(C(N)=O)C(C)C)cc1` (centres undefined)?
VDR inh: -17%

Results for CCC1CN(C(=O)N2CCC(C(=O)NCc3cccc(OC)c3OC)CC2)c2cc(C)ccc2O1 (centres undefined) ?
VDR inh: -3%&2%

How did CC(C)(O)c1nnn(-c2ccccc2)c1C(F)(F)F do in these assays?
VDR inh: -7%

What do the screens show for `COc1ccc(S(=O)(=O)Nc2cccc3c2O[C@H](CN(C)Cc2ccc(-c4ccccc4)cc2)[C@@H](C)CN([C@H](C)CO)C3=O)cc1`?
VDR inh: 20%

How did COc1ccc(OC)c(NC(=O)Nc2cccc3ccccc23)c1 do in these assays?
VDR inh: 18%

How did Cc1oc2cc3oc(=O)c(CC(=O)N4CCCCC4)c(C)c3cc2c1C do in these assays?
VDR inh: -10%

How did Cc1ccccc1NC(=O)C1CCN(S(=O)(=O)c2cccc3nonc23)CC1 do in these assays?
VDR inh: 9%&6%

Results for O=C1CCC(=O)N1OCCCCOc1ccccc1 ?
VDR inh: 26%

What do the screens show for `Cc1ccc(C(=O)N/C(=C\c2cccs2)C(=O)NCC2CCCO2)cc1C` (centres undefined)?
VDR inh: -29%

What do the screens show for `Cc1ccccc1CS(=O)(=O)Cc1ccc(C(=O)NCc2ccc(F)cc2)o1`?
VDR inh: 3%

What do the screens show for `COc1cccc(NC(=O)CN(C)CC(=O)NCc2ccc(F)cc2)c1`?
VDR inh: 5%

How did COc1ccccc1N1CCN(CCOc2c(OC)cccc2OC)CC1 do in these assays?
VDR inh: -4%

How did CCCC(=O)C1=C(c2cccc(OC)c2)N(C(=O)CCC)n2c(C)nnc2S1 do in these assays?
VDR inh: 3%

What do the screens show for `CC(C)Nc1nnc(SCC(=O)/C=C2\N(C)c3ccccc3C2(C)C)s1`?
VDR inh: -2%

Results for CCN(CC(=O)NCc1cccs1)C(=O)/C=C/c1cc(Br)ccc1OC(F)F ?
VDR inh: -8%

How did O=C(N=Nc1c(O)[nH]c2ccccc12)c1ccco1 do in these assays?
VDR inh: 13%

Results for Cc1cc(=O)[nH]c2c1cnn2Cc1ccccc1 ?
VDR inh: -1%

How did CCOC(=O)N1CCC(N2C(=O)c3ccccc3C2Nc2cc(Cl)c(OC)cc2OC)CC1 (centres undefined) do in these assays?
VDR inh: -1%

How did CC(OC(=O)/C=C/c1cccc(C(F)(F)F)c1)C(=O)NC1CCCCC1C (centres undefined) do in these assays?
VDR inh: 10%

Results for Cc1cc(NC(=O)CSCC(=O)N(C)Cc2cccc(Cl)c2)no1 ?
VDR inh: -10%

What do the screens show for `CSc1nc2nccc(-c3ccc(Cl)cc3)n2n1`?
VDR inh: 39%[activator]

How did Cc1cccc(C2c3[nH]c4ccccc4c3CCN2Cc2cccn2-c2ncccn2)c1 (centres undefined) do in these assays?
VDR inh: 10%

What do the screens show for `O=C(COc1ccc(S(=O)(=O)N2CCOCC2)cc1)Nc1ccc(Br)cc1`?
VDR inh: -20%

Results for O=C(Nc1ccc(S(=O)(=O)NC2=NCCCCC2)cc1)c1cc(F)c(F)cc1Cl ?
VDR inh: -21%

How did O=C(CCC(=O)Nc1ccccc1Cl)NNC(=O)NC1CCCCC1 do in these assays?
VDR inh: 8%

What do the screens show for `Cc1ccc(NS(=O)(=O)c2cccc(C(=O)NCC(c3ccco3)N3CCCCC3)c2)cc1` (centres undefined)?
VDR inh: -4%

Results for CC(=O)Nc1ccc(NC(=O)COC(=O)c2cnccn2)cc1 ?
VDR inh: 6%

Results for O=C(CSc1ccc2nnc(-c3ccccn3)n2n1)Nc1ccccc1 ?
VDR inh: -14%

How did COc1ccc(-c2ccc(F)cc2)cc1[C@H]1[C@H]2C=CC[C@@H](C)[C@@H]2C(=O)N1Cc1ccccc1 do in these assays?
VDR inh: -7%

Results for Cc1nc(NCc2ccco2)c2oc3ccccc3c2n1 ?
VDR inh: 8%

How did S=c1[nH]nc(-c2ccccn2)n1/N=C/c1ccc(-c2ccccc2Cl)o1 do in these assays?
VDR inh: -20%

How did CCc1noc(C)c1C(=O)N1CCCC(N2CCN(c3ccc(F)cc3)CC2)C1 (centres undefined) do in these assays?
VDR inh: -12%

What do the screens show for `CSCc1ccc(C(=O)Nc2ccc(C(N)=O)cc2)cc1`?
VDR inh: 5%

How did C=CCn1c(SCC(=O)NCc2ccc3c(c2)OCO3)nnc1C1COc2ccccc2O1 (centres undefined) do in these assays?
VDR inh: 7%

What do the screens show for `COc1ccccc1NS(=O)(=O)c1ccc(NC(C)=O)cc1`?
VDR inh: -9%

Results for Cc1cc(C)c2[nH]c(C(=O)Nc3ccc4c(c3)OCO4)cc2c1 ?
VDR inh: -6%

Results for Cc1nnc(SCC(=O)Nc2ccc3c(c2)OCO3)o1 ?
VDR inh: 4%

How did CCOC(=O)CSc1nnc(N)s1 do in these assays?
VDR inh: -6%

What do the screens show for `Cc1cc(NC(=O)c2cc(-c3cccc(Cl)c3)on2)no1`?
VDR inh: 9%

Results for Cc1ccc(NS(=O)(=O)c2ccc(C(=O)NCCCN3CCOCC3)cc2)cc1 ?
VDR inh: -11%

Results for Cc1ccc(S(=O)(=O)c2nc(NN(C)C)sc2Cl)cc1 ?
VDR inh: -18%

Results for COC(=O)c1ccc(OCC(O)CNC2CCCC2)cc1 (centres undefined) ?
VDR inh: -9%

Results for COc1ccc(CC(=O)NNC(=O)c2nn(Cc3ccccc3)c(=O)c3ccccc23)cc1OC ?
VDR inh: -15%

What do the screens show for `O=C(N/N=C/CCc1ccccc1)c1ccccc1`?
VDR inh: 20%

Results for Cc1nn(C)c(N)c1[N+](=O)[O-] ?
VDR inh: 4%

What do the screens show for `CCc1ccc(NC(=O)CSc2nc3ccccc3c(=O)n2CCCC(=O)N2CCCC2)cc1`?
VDR inh: -8%
